Bioassay records from PubChem BioAssay.
LANA-H2B inh: blocks KSHV LANA binding to histone H2A/H2B | 320,000 compounds, 0.6% hits | inhibition, % (no concentration beside the values) | cell-free LANA-H2A/H2B peptide, fluorescence polarization; in the data active means inhibition mostly above about 10%, no sharp cut-off; inactive means mostly below about 6.7%;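 further: stock transfer was 7.5 nL into about 10 µL; 0% = median of vehicle wells and 100% = median of positive control wells; one replicate is shown; the record names a cut of 25% in any replicate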
UCH37 inh: human UCH37 deubiquitinating enzyme inhibition. AID 588478. Q9Y5K5. 330,000 compounds, 0.33% hits. inhibition, % (no concentration beside the values). purified proteasome/UCH37, Ub-AMC cleavage fluorescence;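 active means mean of two replicates above 20%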;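 further: 0% = compound-free wells with enzyme and 100% = wells lacking proteasome; stock transfer was 100 nL into about 20 µL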
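Signal – fluorescence, ex 355 nm, em 460 nm · System – Proteasome-bound UCH37 · Input – 0.15 nM proteasome as dispensed · Timing – 30 min preincubation with enzyme, 25 min cleavage at room temperature · Read-out basis – percent inhibition of cleavage signal versus uninhibited and no-proteasome wells · Medium – Tris-HCl pH 7.4 with ATP-MgCl2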
Ecoli growth: E. coli growth inhibition; 330,000 compounds, 0.21% hits; Escherichia coli growth, OD600, 23 h; stronger effect = lower value; OD600 absorbance (concentration not given with the values);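 active means OD600 absorbance below the run mean of sample wells minus 3.6 SD, in any replicate, cut at about 0.56 in these data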;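 further: stock transfer was 300 nL into about 60 µL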
Vif A3G: inhibitors of Vif binding to APOBEC3G peptide, primary screen, biochemical, TR-FRET, GST-Vif 1-94, biotin-A3G peptide, dose response retest (AID 1117319); inhibition, %, or IC50 in µM where a hit was titrated; TR-FRET GST-Vif / biotin-A3G peptide binding; higher % means a stronger effect; test concentration not given here; strong numbers were not always called active; 260,000 compounds, 0.57% hits;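 active means above the screen mean plus three standard deviations and confirmed in dose response; inconclusive means results disagree or hit not tested in dose response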;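 further: Vif residues 1-94 fused to GST binding biotinylated APOBEC3G peptide 110-148; 0% = full assay without inhibitor and 100% = GST in place of GST-Vif; retest series ran down from 100 µM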
HNF4A DNA FP: change in binding of human HNF4 alpha to DNA; P41235; HNF4a-FITC DNA binding, fluorescence polarization, 1 h; activity change, % at 10 µM; 360,000 compounds, 0.3% hits; in the data active means activity change above about 30%, passing the limit was not always enough;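 further: controls were the assay level and a saturating level of protein; the project sought stronger binding though the title names inhibitors; some compounds called inactive have numbers as strong as hits; positive values seem to mean higher polarization but the record does not say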
Target sequence (P41235 whole entry, looked up): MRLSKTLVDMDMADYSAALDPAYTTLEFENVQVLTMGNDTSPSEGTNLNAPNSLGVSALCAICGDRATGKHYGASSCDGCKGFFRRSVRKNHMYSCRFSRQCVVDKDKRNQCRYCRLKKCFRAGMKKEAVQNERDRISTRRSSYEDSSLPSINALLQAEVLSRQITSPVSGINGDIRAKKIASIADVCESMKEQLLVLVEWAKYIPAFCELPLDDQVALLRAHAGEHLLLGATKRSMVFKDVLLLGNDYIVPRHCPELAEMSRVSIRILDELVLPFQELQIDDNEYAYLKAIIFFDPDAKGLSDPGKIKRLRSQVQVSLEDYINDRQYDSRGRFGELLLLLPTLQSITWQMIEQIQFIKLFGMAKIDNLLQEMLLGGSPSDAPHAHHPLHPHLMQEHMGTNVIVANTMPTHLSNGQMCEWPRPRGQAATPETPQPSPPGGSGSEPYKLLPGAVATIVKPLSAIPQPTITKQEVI
Beta2AR agonist: agonists of human beta-2 adrenergic receptor inducing internalization | Am2.2-beta2AR cells, FAP receptor internalization, flow cytometry; reference of the scale not given here | AID 504454 | 340,000 compounds, 0.43% hits | response, % (no concentration beside the values);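 active means response above a set limit, near 3 SD of response in nonfluorescent compounds, cut at about 42% in these data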;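 further: stock transfer was 100 nL into about 11 µL; a reference agonist was the positive control; negative values mostly stem from fluorescent compounds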
Target sequence (P07550 whole entry, looked up): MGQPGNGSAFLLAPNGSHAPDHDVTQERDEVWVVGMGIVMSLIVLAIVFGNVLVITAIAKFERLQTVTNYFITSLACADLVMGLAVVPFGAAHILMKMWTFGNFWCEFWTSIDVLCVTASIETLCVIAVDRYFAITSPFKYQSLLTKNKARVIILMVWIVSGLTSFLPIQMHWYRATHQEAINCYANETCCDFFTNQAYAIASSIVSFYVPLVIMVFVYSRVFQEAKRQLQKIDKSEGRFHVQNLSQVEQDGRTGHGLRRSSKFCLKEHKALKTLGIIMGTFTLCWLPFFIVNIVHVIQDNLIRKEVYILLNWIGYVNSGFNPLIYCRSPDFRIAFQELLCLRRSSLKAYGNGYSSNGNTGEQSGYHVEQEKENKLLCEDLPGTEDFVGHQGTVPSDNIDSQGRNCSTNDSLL
A1 inh: inhibitors of the anti-apoptotic protein A1, read as caspase activation. MEF A1-2A-BIM cells, Caspase-Glo 3/7 luminescence, 3 h; percent of clofoctol response, vehicle zero. caspase activation, % (test concentration not listed). 330,000 compounds, 0.066% hits. AID 2462;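 active means over half of replicate activation scores above 10%, or exactly half above 10 with the replicate mean above 10; inconclusive means replicate mean below 10 yet half the replicates above 10; inactive means over half of replicates below 10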;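 further: wells of about 30 µL received 50 nL stock; many hits fall short of the cut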
* = called active by the depositor; ? = inconclusive; · = not tested or not shown.

SMILES	LANA-H2B inh	UCH37 inh	Ecoli growth	Vif A3G	HNF4A DNA FP	Beta2AR agonist	A1 inh
COc1cc(OC)cc(C(=O)N[C@H](C(=O)OCC(=O)c2ccc(C)c([N+](=O)[O-])c2)C(C)C)c1	-1.3	·	·	3.1%	-2.9	-12.4	1.0
Cc1ccc(NC(=S)N(CCCN2CCCC(C)C2)Cc2ccco2)cc1C (stereo not given)	-1.1	-3.9	0.711	-3.9%	-3.1	5.0	0.3
Cc1cc(Cl)ccc1OCC(=O)N1C(C)CCCC1C (stereo not given)	2.6	4.2	0.662	2.9%	1.4	-3.4	1.1
O=C(Nc1ccc(NC(=O)c2ccccc2Cl)nc1)c1ccco1	2.4	3.8	0.664	·	3.4	5.8	-0.4
COc1ccc(CCNCC(O)COc2cccc(C(C)=O)c2)cc1OC (stereo not given)	-4.4	6.0	0.705	-3.9%	5.8	-14.9	0.7
O=S(=O)(NCC1CCCO1)c1ccc(-c2ccc(S(=O)(=O)NCC3CCCO3)cc2)cc1 (stereo not given)	-0.8	5.7	0.701	-4.6%	0.3	-3.0	0.7
Cc1cc(C)nc(NNC(=O)c2ccccc2O)n1	0.4	-1.8	0.627	28.0%	3.6	-2.8	0.4
CC(C)c1ccc(C2(O)C(=O)Nc3cc(Br)ccc32)c(O)c1 (stereo not given)	-4.8	7.3	0.669	-8.5%	0.1	16.1	-1.3
COc1cccc(C(=O)NNC(=O)CCN2CCN(c3ccccc3)CC2)c1	0.3	4.6	0.686	6.6%	-4.5	3.0	-0.4
Cc1cccc(NC(=O)c2nc[nH]c2C(=O)N2CCN(C(=O)OC(C)(C)C)CC2)c1	-2.4	0.6	0.701	·	-0.2	1.9	0.9
Cc1c(NC(=O)c2ccco2)cccc1C(=O)NN1C(=O)c2ccccc2C1=O	-0.1	1.0	0.649	-1.4%	-2.8	1.5	0.2
O=C(N/N=C/c1ccc(OC(F)F)cc1OC(F)F)NC1CCCCC1	1.4	·	·	-5.0%	-1.1	-2.0	0.0
CCn1cc(CCCC(=O)NCc2cccc(OC)c2)c2ccccc21	-2.7	1.6	0.672	-2.9%	-1.8	2.4	-0.3
COc1ccc(C2CC(=O)C(C=NCCN3CCN(C(C)=O)CC3)=C(O)C2)cc1 (stereo not given)	-8.9	2.3	0.679	-0.1%	0.5	0.3	-0.5
O=C1OC(c2ccccc2)c2ccccc21 (stereo not given)	-1.2	2.4	0.591	14.7%	-3.0	2.5	0.9
O=C(COc1ccc(Cl)cc1Cl)NCc1ccco1	8.0	-1.1	0.723	0.1%	-0.2	-3.1	1.2
CCC1(c2ccccc2)NC(=O)N(CC(=O)Nc2cccc(C#N)c2)C1=O (stereo not given)	1.1	0.9	0.609	?	1.7	2.3	2.5
O=c1[nH]c2ccccc2c(=O)n1CCCO	5.3	4.7	0.723	5.6%	-1.5	-4.4	-0.3
CC(C)(C)C(=O)c1sc2nc(-c3cccs3)cc(C(F)(F)F)c2c1N	0.1	-12.9	0.693	-6.6%	-89.6	-727.8	0.4
COc1ccccc1N1CCN(C2=NS(=O)(=O)c3ccccc32)CC1	-3.8	2.0	0.693	6.7%	1.9	8.6	-1.3
CC(C)[C@H](NC(=O)c1ccccc1)C(=O)OCC(=O)Nc1ccc2c(c1)OCCO2	2.4	3.4	·	-2.0%	0.2	8.0	0.3
Cc1ccc(/C=N/Nc2nc(C)cc(C)n2)cc1	-2.3	·	·	·	1.0	-4.8	0.3
COc1cc(Cl)c(C)cc1NC(=O)CSc1ccc(NC(C)=O)cc1	1.5	2.6	0.692	3.9%	0.8	0.5	1.4
Cc1nc(C(=O)NNC(=O)c2ccccc2Cl)c(C(F)(F)F)o1	0.3	4.4	0.662	3.1%	-1.8	-4.4	0.2
S=c1[nH]nc(-c2cc(-c3ccccc3)n[nH]2)n1/N=C/C(Br)=C/c1ccccc1	-4.5	·	·	?	-1.2	9.2	0.4

Three structures from above, arranged by molecular weight, low to high:
SMILES	LANA-H2B inh	UCH37 inh	Ecoli growth	Vif A3G	HNF4A DNA FP	Beta2AR agonist	A1 inh
O=c1[nH]c2ccccc2c(=O)n1CCCO	5.3	4.7	0.723	5.6%	-1.5	-4.4	-0.3
O=C(COc1ccc(Cl)cc1Cl)NCc1ccco1	8.0	-1.1	0.723	0.1%	-0.2	-3.1	1.2
CC(C)c1ccc(C2(O)C(=O)Nc3cc(Br)ccc32)c(O)c1 (stereo not given)	-4.8	7.3	0.669	-8.5%	0.1	16.1	-1.3

(list continues)
SMILES	LANA-H2B inh	UCH37 inh	Ecoli growth	Vif A3G	HNF4A DNA FP	Beta2AR agonist	A1 inh
O=C(Cc1ccc([N+](=O)[O-])cc1)NNC(=O)c1cccs1	2.9	-0.3	0.684	·	2.0	7.1	1.4
CCOC(=O)C1(CCCc2ccccc2)CCN(C(=O)c2cnn(CC)c2)CC1	-3.4	2.7	0.66	-6.0%	-0.4	1.5	0.0
O=C(OCC(=O)N1CCOCC1)c1ccccc1SCC(=O)N1CCCC1	-4.5	3.0	0.706	2.7%	-1.7	7.3	0.6
COCCN(C(=S)Nc1ccc(C)cc1)C(C)c1cccnc1 (stereo not given)	1.7	0.2	0.637	·	0.4	6.3	1.1
CCCN(C(=O)Cc1c(C(=O)O)n(C)c2ccccc12)c1cccc(C)c1	-2.1	1.6	0.672	-3.9%	-1.9	5.9	-0.3
COc1cc(C#Cc2c(-c3ccccc3)n(C)c3ccccc23)cc(OC)c1	-0.4	-137.0	·	·	-3.2	-2.0	1.9
O=C(CC1SCCNC1=O)Nc1cccc(C(F)(F)F)c1 (stereo not given)	-0.9	-0.2	0.62	8.8%	-3.4	7.5	-0.2
Cc1cc(NN)nc(NS(=O)(=O)c2ccccc2Cl)n1	0.1	2.6	0.704	-9.9%	1.6	-0.2	0.4
COc1ccc2c(C)cc(=O)oc2c1C	2.2	-61.6	0.692	-1.5%	-1.5	-6.7	-0.5
CCc1cccc(CC)c1-n1c(SCn2nnc3ccccc3c2=O)nnc1-c1cccnc1	-1.4	3.1	0.738	0.0%	-1.0	0.9	0.6
O=C(OCC(=O)C12CC3CC(CC(C3)C1)C2)c1cccnc1Cl	2.4	1.8	0.644	·	2.3	-0.9	0.4
COc1ccc(C(=O)/C=C/Nc2cccc(O)c2)cc1	1.2	-0.7	0.701	2.2%	11.4	5.0	-2.0
CCc1cccc(C)c1N(C(=O)Cn1c(CO)nc2ccccc21)C(C)COC (stereo not given)	0.5	7.3	0.714	0.0%	-1.2	3.6	-0.3
CCc1ccc(OCC(=O)NNC(=O)c2nn(CC)c(=O)c3ccccc23)cc1	7.1	0.2	0.705	-11.8%	3.8	-0.5	0.5
Cc1ccc(S(=O)(=O)Nc2ccc3[nH]c(=O)[nH]c3c2)c(C)c1	2.0	0.9	0.65	9.8%	-1.9	3.3	0.1
CN(CC1COc2ccccc2O1)C(=O)c1cc(COc2c(F)cccc2F)on1 (stereo not given)	3.6	3.4	0.733	24.0%	-1.7	-3.2	0.4
COc1ccccc1C(=O)Nc1ccc(OCC(=O)N2CCCCC2)cc1	-3.5	5.0	0.714	1.3%	2.8	-8.2	0.0
O=S(=O)(c1ccc(S(=O)(=O)n2cnc3ccccc32)cc1)N1CCCCCC1	-3.8	1.7	0.707	12.2%	0.0	4.2	1.3
COc1ccc(-c2n[nH]c(=S)n2-c2ccccc2C)cc1	-2.5	2.7	0.655	3.9%	-3.3	5.0	0.2
Cc1nc2nc(-c3ccccc3)[nH]n2c(=O)c1Cc1ccccc1	-1.2	1.7	0.762	21.9%	-0.9	4.5	-1.1
CN(C)CCCNc1oc(-c2cccc(Cl)c2)nc1C#N	-2.2	-90.6	0.737	26.1%	-6.8	5.0	-0.5
Cc1ccc(NC(=O)NC(=O)COc2ccccc2C(N)=O)c(C)c1	-0.5	4.7	0.706	-10.9%	-0.5	-2.7	-1.0
COc1ccc(NC(=O)N2CCc3cc(OC)c(OC)cc3C2)cc1	2.8	-3.2	0.62	·	2.8	-8.6	0.3
Cc1nc(C#N)c(N/N=C/c2c(F)cccc2Cl)o1	-2.9	·	·	0.8%	2.1	-2.4	-3.0
CC(C)(C)C1C/C(=C/c2ccco2)C(=O)/C(=C/c2ccco2)C1 (stereo not given)	-1.6	·	·	2.65µM*	56.0	1.3	1.1
Next part:
SMILES	LANA-H2B inh	UCH37 inh	Ecoli growth	Vif A3G	HNF4A DNA FP	Beta2AR agonist	A1 inh
CCOC(=O)c1ccc(NC(=O)N2CCN(C(=O)C3CCCO3)CC2)cc1 (stereo not given)	1.6	0.3	0.663	2.9%	-2.5	1.5	-0.1
Cc1ccc(OCC(=O)Nc2cc(NC(=O)COc3ccc(C)c(C)c3)cc(C(=O)O)c2)cc1C	-2.6	1.1	0.685	-10.0%	-1.9	3.8	0.5
Cc1nn(C)cc1CN(C)C(=O)c1sc2cccc(Cl)c2c1Cl	1.0	0.4	0.663	-1.4%	0.9	11.4	0.4
COc1cccc(-c2nnc(-c3ccc(C(F)(F)F)cc3)o2)c1OC	1.6	1.9	0.671	6.6%	1.3	-7.1	-0.8
Cc1cccc2cccnc12	2.3	1.0	0.672	·	4.6	-4.2	0.2
COc1ccc(N=Cc2c(O)ccc3ccccc23)cc1	-16.2	2.4	0.722	·	72.1*	1.1	-0.7
Cc1cccc2nc(CSCc3ccco3)cn12	-0.7	3.0	0.764	?	-13.5	-15.4	-1.4
O=C(CSc1nc2c(c(C(F)(F)F)n1)CCc1ccccc1-2)NCc1ccccc1	-3.5	-0.1	0.748	-49.0%	2.0	-11.3	-0.1
Cc1ccc2nc(NC(=O)COC(=O)c3ccc(Br)o3)sc2c1	-0.7	-2.5	0.769	1.5%	2.9	6.0	-0.3
COc1ccc(NC(=O)CN2C(=O)NC(C)(c3ccc4c(c3)OCCO4)C2=O)cc1S(N)(=O)=O (stereo not given)	0.8	3.4	0.655	2.7%	3.5	-3.5	-0.6
O=C1C[C@@H]2c3c(cccc3CN1Cc1ccccc1F)C[C@@H](O)[C@H]2O	·	6.2	·	·	0.5	-7.7	·
Cc1noc(C)c1S(=O)(=O)N1CCC(C(=O)Nc2ccc(OC(F)(F)F)cc2)CC1	-0.8	2.1	0.654	-1.0%	0.1	0.6	0.2
CC1CCc2c(sc(/N=C/c3cccnc3)c2C(N)=O)C1 (stereo not given)	2.1	·	·	-7.7%	-3.1	-14.8	?
O=C1/C(=C/C=C/c2ccco2)SC(=S)N1NS(=O)(=O)c1ccccc1	2.8	19.5	0.716	2.9µM*	-58.0	26.2	1.2
C/C(=C\C(=O)c1ccc(Br)cc1)NCc1ccccc1	2.5	-0.3	0.736	-1.9%	0.1	46.4*	-0.4
CC(=O)Oc1ccccc1/C=C/c1nc2ccccc2c(=O)o1	-0.3	-2.0	0.667	1.5%	4.1	2.4	-7.5
COc1ccc(/C=C2\SC(=S)N(CCC(=O)Nc3ccc(O)cc3)C2=O)cc1	1.2	2.5	0.618	·	-5.4	1.1	-0.2
O=S(=O)(N1CCOCC1)n1nnc2ccccc21	-0.8	1.1	0.66	-1.4%	-5.1	5.9	-0.4
Cc1ccc(S(=O)(=O)N(C)C)cc1N	-0.9	3.1	0.696	3.0%	4.5	8.4	0.7
C=CCNc1nc2c(c(=O)n(C)c(=O)n2C)n1Cc1ccc(F)cc1	0.8	3.7	0.773	?	2.4	-7.3	-0.9
CN(c1cccc(NS(=O)(=O)c2cccc([N+](=O)[O-])c2)c1)S(C)(=O)=O	1.8	2.0	0.641	9.7%	1.9	3.5	-0.2

An unsorted share of the library; overall some 2.1% were active at least once.
